Vif TR-FRET = inhibitors of Vif binding to APOBEC3G peptide, primary screen, biochemical, TR-FRET, GST-Vif 1-94, biotin-A3G peptide, dose response retest (AID 1117319). TR-FRET GST-Vif / biotin-A3G peptide binding; higher % means a stronger effect; test concentration not given here; strong numbers were not always called active. inhibition, %; hits with a dose series show IC50 in µM. 260,000 compounds, 0.57% hits;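 active means above the screen mean plus three standard deviations and confirmed in dose response; inconclusive means results disagree or hit not tested in dose response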;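 further: Vif residues 1-94 fused to GST binding biotinylated APOBEC3G peptide 110-148; 0% = full assay without inhibitor and 100% = GST in place of GST-Vif; retest series ran down from 100 µM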
Beta apoptosis = beta cell apoptosis inhibition; AID 435005; 300,000 compounds, 0.8% hits; INS-1E cytokine-induced death, ATP luminescence, 48 h; percent of positive-control rescue, neutral wells zero; protection from apoptosis, % (concentration not given with the values);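 active means all replicates at 75% or more, or half of them and the mean; inconclusive means half reach 75% but not the mean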;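 further: 0% = cytokine-treated negative control wells and 100% = positive control rescue; higher means more ATP so stronger rescue from cytokine killing; wells of about 40 µL received 100 nL stock; the first replicate is given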
AF4-AF9 inh = blocks AF4 peptide binding to human AF9; P42568; AlphaScreen, biotin-AF4 peptide binding to FLAG-AF9; inhibition, % at 10 µM; 350,000 compounds, 0.47% hits;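 active means every replicate reaching a set inhibition limit, whatever the replicate mean, cut at about 25% in these data; inconclusive means mean inhibition reaches that limit but some replicates miss it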;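 further: 0% = plate neutral control median and 100% = total signal loss; the record names both 10 and 1 µM as test concentration; the first replicate is given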
Target sequence (P42568 whole entry, looked up): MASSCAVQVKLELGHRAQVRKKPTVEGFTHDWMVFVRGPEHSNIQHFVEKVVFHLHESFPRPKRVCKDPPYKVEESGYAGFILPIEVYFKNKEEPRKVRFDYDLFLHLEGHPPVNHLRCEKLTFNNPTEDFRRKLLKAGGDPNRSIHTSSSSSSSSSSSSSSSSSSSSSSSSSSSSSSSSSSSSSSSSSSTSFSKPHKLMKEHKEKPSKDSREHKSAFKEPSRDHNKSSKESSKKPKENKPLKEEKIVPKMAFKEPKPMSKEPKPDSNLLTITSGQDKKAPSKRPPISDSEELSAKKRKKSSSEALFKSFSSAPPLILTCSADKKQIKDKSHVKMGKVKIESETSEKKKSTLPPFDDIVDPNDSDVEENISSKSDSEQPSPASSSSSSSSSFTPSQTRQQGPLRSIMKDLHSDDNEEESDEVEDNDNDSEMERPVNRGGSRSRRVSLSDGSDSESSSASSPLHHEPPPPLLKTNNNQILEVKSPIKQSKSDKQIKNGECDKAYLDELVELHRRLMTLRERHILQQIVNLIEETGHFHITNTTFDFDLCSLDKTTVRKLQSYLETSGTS
RanGTP-Impb inh = disruptors of Ran-importin-beta complex formation – biochemical, FRET, CFP-Ran, YFP-importin-beta, homogeneous, primary screen; inhibition, % (no concentration beside the values); 300,000 compounds, 1.1% hits; AID 2216; cell-free CFP-Ran/YFP-importin-beta FRET ratio;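 active means most replicates above 15%; inconclusive means exactly half above 15%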;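 further: 0% = DMSO wells and 100% = Ran loaded with GDP instead of GTP; wells of about 40 µL received 100 nL stock; the first replicate is given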
Bfl-1 A1 inh = inhibitors of the anti-apoptotic protein A1, read as caspase activation | MEF A1-2A-BIM cells, Caspase-Glo 3/7 luminescence, 3 h; percent of clofoctol response, vehicle zero | caspase activation, % (concentration not given with the values) | 330,000 compounds, 0.066% hits;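 active means over half of replicate activation scores above 10%, or exactly half above 10 with the replicate mean above 10; inconclusive means replicate mean below 10 yet half the replicates above 10; inactive means over half of replicates below 10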;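 further: wells of about 30 µL received 50 nL stock; many hits fall short of the cut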
LANA-H2B inh = blocks KSHV LANA binding to histone H2A/H2B. cell-free LANA-H2A/H2B peptide, fluorescence polarization. AID 2629. inhibition, % (concentration not given with the values). 320,000 compounds, 0.6% hits. Q9QR71; in the data active means inhibition mostly above about 10%, no sharp cut-off; inactive means mostly below about 6.7%;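 further: stock transfer was 7.5 nL into about 10 µL; 0% = median of vehicle wells and 100% = median of positive control wells; one replicate is shown; the record names a cut of 25% in any replicate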
T cruzi repl = blocks replication of Trypanosoma cruzi; T. cruzi beta-gal in NIH3T3, luminescence, 90 h; inhibition, % (test concentration not listed); 300,000 compounds, 1.4% hits;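 active means mean inhibition across valid replicates above about 55%, limit read from the data; inconclusive means mean below that limit but half or more replicates reach it; inactive means mean below it, under half of replicates reach it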;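 further: signal also drops with host cell toxicity which is not excluded here; 0% = plate median of DMSO wells and 100% = zero luminescence signal; higher percent means less beta-gal luminescence so fewer parasites; stock transfer was 50 nL into about 50 µL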
Calb FLC = affects C. albicans growth with fluconazole. 300,000 compounds, 0.57% hits. C. albicans CaCi-2 (fluconazole-resistant clinical isolate) + fluconazole, Alamar Blue growth, 48 h. growth inhibition, % (test concentration not listed);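 active means most replicates above 75%; inconclusive means exactly half above 75%; inactive means most below 75%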;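 further: all wells also contain fluconazole at 8 µg/ml as a sub-toxic cotreatment; 0% = median of DMSO wells and 100% = median of geldanamycin control wells; wells of about 8 µL received 7.5 nL stock; the first replicate is given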
Numbers without * were called inactive; ? = inconclusive; nt = not tested or not shown; & = joins results of further samples.

SMILES,Vif TR-FRET,Beta apoptosis,AF4-AF9 inh,RanGTP-Impb inh,Bfl-1 A1 inh,LANA-H2B inh,T cruzi repl,Calb FLC
CC(=NC1CC1)c1c(-c2ccccc2)[nH]n(-c2nc3ccccc3s2)c1=O,6%,3,nt,4.2,-0.8,-0.5,17,-5
O=C(CSc1n[nH]c(=O)[nH]c1=O)N/N=C/c1ccccc1O,31%,-1,nt,0.9,0.6,2.6,-10,11
NS(=O)(=O)c1ccc(CCNCc2ccccc2OCc2ccc(F)cc2)cc1,-1%,nt,4.9,0.5,0.5,10.0,-6,-7
O=C(O)CCNc1ccc(Cl)cc1,30%,2,-0.5,?,-1.2,0.3,-11,6
N#Cc1c(NC(=O)Cn2c(=O)oc3ccccc32)oc(-c2ccccc2)c1-c1ccccc1,?,3,nt,0.3,0.0,3.1,3,-2
Cn1c(Cc2ccc3c(c2)OCO3)nnc1SCC(=O)N1CCc2ccccc2C1,22%,-5,nt,4.1,1.0,-2.8,10,4
CCOc1ccc(CN2CCN(c3ncnc4scc(-c5ccccc5)c34)CC2)cc1,2%,-2,11,7.1,-0.3,0.4,5,-7
COc1cc(S(=O)(=O)NCC(c2ccco2)N2CCCCC2)ccc1NC(C)=O (stereo not drawn),6%,0,0.1,nt,0.4,4.5,nt,nt
O=C(NCCSCc1ccco1)c1ccc(CN2CCOCC2)cc1,-4%,-1,nt,5.7,-0.3,-0.9,-7,1
[O-][n+]1c2ccccc2[n+]([O-])c2cc(O)ccc21,nt,4,10,-2.8,-2.0,1.8,-15,-7
Cc1ccc(-c2nnc(SCc3nc4ccccc4[nH]3)n2Cc2ccco2)cc1,-5%&2%,-7,nt,?,-0.6,-8.6,2,28
O=C(NCc1ccc(F)cc1)c1ccc(CS(=O)(=O)Cc2ccccc2F)o1,7%,3,nt,-0.9,-0.7,-0.9,4,95*
O=C(NC(Cc1ccccc1)C(=O)OCC(=O)N1CCc2ccccc21)c1ccco1 (stereo not drawn),0%,-5,nt,5.0,-0.9,-0.1,-3,1
Cc1cc(C2C(C#N)=C(N)OC3=C2C(=O)CCC3)c(C)s1 (stereo not drawn),2%,-4,nt,-13,-0.3,-0.5,-1,2
COc1ccc(-c2nnn(CC(=O)c3ccc4c(c3)OCCO4)n2)cc1OC,22%,nt,nt,3.3,0.0,1.1,6,0
CCCC(C)NC(=O)C1c2ccccc2Oc2ccccc21 (stereo not drawn),nt,-8,-2.1,1.5,0.2,0.5,-5,-12
COc1ccc(-c2cc(=O)oc3cc(OCC(=O)c4cccc([N+](=O)[O-])c4)ccc23)cc1,nt,nt,-17,6.2,nt,nt,33,-2
O=C(N/N=C/c1cn(-c2ccccc2)nc1-c1cc2ccccc2o1)c1ccccc1Br,?,2,9.9,0.9,-0.8,1.3,20,-7
O=C(Nc1ccc(S(=O)(=O)NC2=NCCCCC2)cc1)c1ccc(C(F)(F)F)cc1,nt,-3,3.3,2.1,0.6,-2.3,-8,-25
O=C(O)c1ccc2c3c(cccc13)C(=O)N(OS(=O)(=O)c1ccccc1)C2=O,-4%,-6,-1.2,4.2,0.0,1.7,0,31

Given with values under each structure: two of the compounds above.
Order of values – Vif TR-FRET, Beta apoptosis, AF4-AF9 inh, RanGTP-Impb inh, Bfl-1 A1 inh, LANA-H2B inh, T cruzi repl, Calb FLC
O=C(O)c1ccc2c3c(cccc13)C(=O)N(OS(=O)(=O)c1ccccc1)C2=O
→ -4%, -6, -1.2, 4.2, 0.0, 1.7, 0, 31
CC(=NC1CC1)c1c(-c2ccccc2)[nH]n(-c2nc3ccccc3s2)c1=O
→ 6%, 3, nt, 4.2, -0.8, -0.5, 17, -5

(list continues)
SMILES,Vif TR-FRET,Beta apoptosis,AF4-AF9 inh,RanGTP-Impb inh,Bfl-1 A1 inh,LANA-H2B inh,T cruzi repl,Calb FLC
O=C(NNC(=S)Nc1ccccc1)c1cccnc1,nt,-6,-2.6,-0.4,-0.3,-0.5,1,1
Cc1sc2nc(CSCC(=O)Nc3c(Cl)cccc3Cl)[nH]c(=O)c2c1C,nt,7,nt,0.9,-0.6,-5.3,-7,-3
Cc1ccc(-n2nc3c(N4CCC(C(=O)NCc5ccccc5C)CC4)nnc(C)c3c2C)cc1,nt,32,nt,-3.1,0.4,13,36,-16
COc1ccc(-c2nnc(N(C)C(=O)C3CCOC3)s2)cc1 (stereo not drawn),0%,-4,nt,6.7,-0.3,-2.5,-6,2
Cc1c(Cl)cccc1NC(=O)CSc1nnc(CCNC(=O)OC(C)(C)C)o1,-4%,-6,nt,1.8,0.1,-2.9,-16,-8
COc1cc(/C=N/O)ccc1OCc1ccc(Cl)cc1,12%,1,-1.4,-0.1,-4.6,-0.6,10,?
CCN1C(=O)[C@H]2[C@@H](c3ccc(-c4ccc(OC)cc4)cc3)N[C@@](C)(C(=O)OC)[C@H]2C1=O,nt,-2,-20,-0.4,1.0,17,-5,-4
COc1ccc(Cl)cc1C(=O)NNC1CC(=O)N(Cc2ccc(Cl)cc2)C1=O (stereo not drawn),nt,-5,nt,-3.0,-1.3,-2.7,6,25
COC(=O)c1sc(NC(=S)NNC(=O)c2c(Br)c(C)nn2C)c(C(=O)OC)c1C,nt,-1,-1.3,3.4,-0.2,0.5,-9,3
COc1ccc(CCNC(=O)CCCn2c(=O)c3cccn3c3cccnc32)c(OC)c1OC,?,-2,-1.3,-1.5,-2.4,0.6,12,-17
COc1cccc(/C=N/n2c(-c3n[nH]c4c3CCC4)n[nH]c2=S)c1O,nt,-8,nt,2.1,-0.1,-2.0,3,22
C[C@H](CO)N1C[C@H](C)[C@@H](CN(C)S(=O)(=O)c2cccs2)Oc2ccc(NC(=O)Cc3ccccc3)cc2C1=O,nt,4,0.5&-22,nt,-0.3,-4.4,nt,nt
COc1ccc(/C=N/n2c(C)nnc2C)c(OC)c1OC,-7%,1,nt,-2.4,-0.4,-0.4,-9,-1
O=C(CN1C(=O)C2C3C=CC(C4CC34)C2C1=O)Nc1cccc2ncccc12 (stereo not drawn),9%,-7,-2.9,-0.1,0.1,3.2,1,30
CCN1CCN(C(=O)CN(c2cc(OC)ccc2OC)S(C)(=O)=O)CC1,16%,nt,nt,6.0,0.2,3.4,-6,4
CCC(=O)c1ccc(OCC(=O)N(C)CC(=O)Nc2cccc(F)c2)cc1,4%,-4,0.8,1.0,0.5,3.3,-13,-7
C/C(=N/NC(=O)CNC(=O)c1cccnc1)c1cccc([N+](=O)[O-])c1,27%,nt,-1.7,5.6,-0.6,-1.5,-12,3
COc1ccc(C2CC(c3ccc(OC)cc3)n3nc(NS(C)(=O)=O)nc3N2)cc1 (stereo not drawn),6%,1,-17,-0.9,0.6,-1.8,10,4
CCOc1ccc2ccccc2c1C1NC(=O)N(C)C(C)=C1C(=O)OCCOC (stereo not drawn),-2%,3,-1.5,96*,0.0,-0.2,18,2
OCC[C@@H]1C[C@H](O)[C@@H](O)[C@@]2(OCc3ccccc32)O1,nt,-5,-0.2,?,0.8,0.0,-5,1
CCN(CC(=O)Nc1c(F)cccc1F)C(=O)c1ccc(COc2ccccc2)cc1,nt,1,3.0,-0.9,0.9,3.1,17,-3
CCc1ccc(OCC(=O)NNC(=O)Cc2cccs2)cc1,nt,-5,nt,-1.6,-0.4,2.0,0,?
CC(=O)c1c(C)[nH]c(C(=O)OCc2csc(CC(=O)Nc3ccccc3C)n2)c1C,nt,-5,-2.9,nt,-1.4,1.4,nt,nt
O=C(O)c1cccc(NC(=O)c2cn(-c3ccccc3)nc2-c2cc3ccccc3o2)c1,13%,-11,-12,-2.5,-0.6,nt,3,-18
Clc1ccc(CO/N=C/c2c(-c3ccccc3)nc3n2CCS3)c(Cl)c1,6%,0,nt,-0.3,0.5,2.7,?,-4
CCO/N=C(/c1nonc1N)N1CCN(c2ccc([N+](=O)[O-])cc2)CC1,1%,1,nt,0.2,0.4,-0.1,-3,2
Cn1c(=O)c2c(ncn2Cc2ccc(Cl)c(Cl)c2)n(C)c1=O,-1%,15,nt,4.8,1.1,-1.4,-35,2
Cc1cccc(NC(=O)CCC2CCN(Cc3nccs3)CC2)c1,nt,-8,-4.6,?,-0.5,-6.8,-23,19
COC(=O)Cc1ccc(NC(=S)NCc2ccccc2Cl)cc1,nt,4,-1.0,0.8,0.0,2.6,-11,16
O=C(O)C1=NN(c2c(F)c(F)cc(F)c2F)C(=O)CC1,0%,-9,-0.6,0.0,0.1,3.1,-8,4
O=C(Nc1nc(-c2ccccn2)cs1)C1CC(=O)N(c2ccc3c(c2)OCCO3)C1 (stereo not drawn),6%,1,4.6,5.2,0.2,-2.7,-17,-5
CCOc1ccc(NC(=S)N/N=C(\C)Cc2ccc(OC)cc2)cc1,nt,-11,5.6,5.2,0.1,0.7,3,-11
c1ccc2c(-c3[nH]ncc3CNCCCn3ncc4ccccc43)cccc2c1,nt,33,2.5,?,0.0,-3.2,-11,-1
Cc1cccc(NC(=O)Cn2c(O)c(N=NC(N)=S)c3ccccc32)c1,15%,8,-39,-3.9,0.4,1.1,14,-9
CCN1C(=NCc2ccc(OC)cc2)N[C@@H](CCc2ccccc2)[C@H](C(=O)NCc2ccc(OC)cc2)[C@H]1C,nt,11,nt,0.8,0.3,1.1,10,64
CCCCC1NC(=S)N(C2CCCCC2)C1=O (stereo not drawn),-11%,-12,-0.9,?,0.3,0.2,-8,4
CC(=O)c1cc2c(cc1NC(=O)c1ccc(C)cc1)OCO2,-6%,0,nt,-3.0,-0.2,1.4,5,-2
CCc1nc2c(c(=O)[nH]1)C1(CCCC1)Cc1ccccc1-2,2%,3,nt,1.4,0.0,-2.0,9,-8
Cc1ccc(S(=O)(=O)NC(=O)NN2CCCCCC2)cc1,28%,-7,-0.3,-7.2,-1.0,-4.2&-24,-6,nt
CCOc1ccc(S(=O)(=O)c2c[nH]c3ccccc3c2=O)cc1,nt,-1,-0.2,?,0.3,-1.3,5,-1
Cc1ccc(NC(=O)CCN2C(=O)c3ccccc3Sc3ncccc32)cc1,nt,-6,5.9,3.3,-0.5,1.4,-10,-8
COc1ccc(C2CC(c3ccccc3)Nc3nc(NC(=O)c4cccs4)nn32)cc1 (stereo not drawn),0%&-3%,-11,nt,-0.1,0.5,1.9,22,nt
S=c1[nH]nc(-c2cc(-c3ccccc3)n[nH]2)n1/N=C/c1ccc(Cl)cc1,4%,3,-2.9,0.4,-0.3,4.5,7,5
CCN(CC)S(=O)(=O)c1ccc(C(=O)NC2=C(C(=O)OC)SCC2)cc1,7%,9,nt,-1.6,-0.3,-6.0,9,-6
O=C(Cn1cnc2c(nnn2-c2ccccc2)c1=O)NCC1CCCO1 (stereo not drawn),0%,-1,0.3,2.3,1.3,1.8,-18,-8

Screening data from PubChem.

Compounds as they come; about 4.3% have a hit in one of these screens.
